Source: PubChem BioAssay
GALR2 agonist – GALR2 (human) receptor agonism; GALR2-expressing cells, agonist activation read-out; activation, %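 (tested at 5 µM)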; 140,000 compounds, 0.48% hits; O43603;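 active = above mean plus 3 SD of all compounds, about 5% in these data, not always enough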;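 note: 0% = vehicle buffer wells and 100% = reference agonist at full effect; tested in CHO reporter cells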
Target sequence (O43603 whole entry, looked up): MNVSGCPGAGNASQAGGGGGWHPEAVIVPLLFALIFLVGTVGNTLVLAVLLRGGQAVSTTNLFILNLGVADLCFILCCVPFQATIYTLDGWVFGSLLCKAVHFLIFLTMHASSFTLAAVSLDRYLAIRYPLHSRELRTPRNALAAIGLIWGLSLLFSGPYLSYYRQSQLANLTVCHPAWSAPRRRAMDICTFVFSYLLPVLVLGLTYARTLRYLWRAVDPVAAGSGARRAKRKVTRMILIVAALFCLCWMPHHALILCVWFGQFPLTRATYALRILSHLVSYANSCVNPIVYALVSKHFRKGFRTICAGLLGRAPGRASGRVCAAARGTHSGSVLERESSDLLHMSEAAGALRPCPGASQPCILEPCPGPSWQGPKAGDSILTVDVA
HSV replic up – increases HSV replication in cells; HSV replication augmentation in cells, fold increase; 220,000 compounds, 0.005% hits; maximum fold increase;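 active = peak rise of 1.5-fold or more in the series; inconclusive = self-fluorescent or not available for retest; tested in PC3 cells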;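 note: first round at 10 µM; read as green reporter fluorescence; hits show the peak of a series up to 25 µM; 1 = signal of infected wells without compound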
RGS16-Gao – RGS16-Galphao interaction regulator (human); bead-based flow cytometry RGS16-Galphao binding, fluorescence; actives lie on both sides; binding response (% of control), % at 10 µM; 220,000 compounds, 0.38% hits; AID 1441;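 active = below 25% or above 175%, edge rows of some plates excepted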;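 note: Galphao activated by GDP with aluminum fluoride before binding; 100% = wells without compound and 0% = beads without RGS; some results beyond the cut were filed as inactive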
Target sequence (O15492 whole entry, looked up): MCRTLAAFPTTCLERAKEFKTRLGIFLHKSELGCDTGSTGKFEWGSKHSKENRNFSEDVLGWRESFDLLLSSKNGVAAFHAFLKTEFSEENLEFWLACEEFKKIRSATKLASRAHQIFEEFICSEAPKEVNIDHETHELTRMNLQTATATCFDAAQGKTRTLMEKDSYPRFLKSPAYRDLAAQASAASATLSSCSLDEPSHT
Target sequence (P09471 whole entry, looked up): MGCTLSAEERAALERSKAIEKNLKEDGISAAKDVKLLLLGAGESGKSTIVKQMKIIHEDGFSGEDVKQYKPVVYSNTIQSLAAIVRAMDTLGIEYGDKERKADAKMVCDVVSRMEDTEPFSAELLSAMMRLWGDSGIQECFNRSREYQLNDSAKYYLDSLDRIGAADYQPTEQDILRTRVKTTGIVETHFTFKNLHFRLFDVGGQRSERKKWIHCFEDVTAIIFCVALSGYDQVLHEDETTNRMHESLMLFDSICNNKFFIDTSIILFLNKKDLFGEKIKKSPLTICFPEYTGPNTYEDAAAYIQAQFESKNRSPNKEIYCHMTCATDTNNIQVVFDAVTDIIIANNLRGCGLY
PKD1 inh – PKD1 (human) kinase inhibition; 200,000 compounds, 0.056% hits; inhibition, %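 (about 10 µM by stock and volumes)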; AID 797; Q15139; PKD1 kinase fluorescence polarization assay;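 active = inhibition of 50% or more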;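 note: controls were vehicle for no effect and a reference inhibitor for full effect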
INS promoter inh – TRM-6 insulin promoter activity inhibition. 130,000 compounds, 0.9% hits. TRM-6 cells (human fetal islet line), insulin promoter-eGFP reporter, imaging; reporter expression induced with tamoxifen. inhibition, % at 2 µM;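 active = inhibition above the mean plus 3 SD, with well images judged a real hit on visual review, cut at about 60% in these data, passing the limit was not always enough; inconclusive = inhibition over the cutoff but images rejected on review; inactive = inhibition not above the cutoff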
INS promoter inh cell count – second read-out of INS promoter inh, no call of its own (marks repeat the call); normalized cell count, %; measured here: cell count, toxicity; reference of the scale not given here;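 cells exposed to compound for 48 h; stained nuclei by imaging scaled within each plate; lower means fewer cells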
HSV replic up primary fold – recorded beside HSV replic up, whose call it bears; fold increase; compound at 10 µM; measured here: primary screen fold increase 10 uM; tested in PC3 cells;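 GFP signal in the first replicate; 1 = infected wells without compound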
* hit, by the source's call; i = inactive; ? = inconclusive; . = not tested or not shown.

SMILES	GALR2 agonist	HSV replic up	HSV replic up primary fold	RGS16-Gao	PKD1 inh	INS promoter inh	INS promoter inh cell count
O=C(c1cc2c(=O)n3ccccc3nc2s1)N1CCN(Cc2ccc3c(c2)OCO3)CC1	.	i	0.9	101	7	10	141
CC(Nc1ccc(Cl)cc1)c1cc(Cl)ccc1O (centres undefined)	-3.0	i	1	106	1	26	114
CC(C)(C)c1ccc(C(=O)N2CCC(=O)N(C(CO)Cc3ccccc3)CC2)cc1 (centres undefined)	-0.2	i	0.94	88	2	33	110
CCc1ccc(NC(=O)CSc2ccc(-c3ccco3)nn2)cc1	.	i	0.9	98	5	42	130
CCC1CCCCN1C(=O)COc1cccc2c1CCN(C)C2=O (centres undefined)	.	i	0.87	102	-11	28	110
COc1ccc(Cl)cc1-c1nc(SCC(=O)NCCN2C(=O)CSC2=O)n[nH]1	-1.8	i	1.1	106	-1	29	139
COc1cc(NC(=O)c2cccc(C)c2)c(Cl)cc1[N+](=O)[O-]	-1.7	i	0.96	101	-2	0	125
CCOC(=O)CSC1=C(C#N)C(c2ccco2)C(C(=O)Nc2cccc(C(F)(F)F)c2)=C(C)N1 (centres undefined)	-2.2	i	0.94	100	5	-350	65
COc1ccc(CC(=O)OCC(=O)NC(=O)NC23CC4CC(CC(C4)C2)C3)cc1	-2.8	i	1	101	0	-19	72
COc1ccc2nc(Nc3nc(C)c(C(C)=O)s3)sc2c1	2.0	i	0.77	100	-7	-34	126
CN(C(=S)Nc1ccc(SC(F)F)cc1)c1ccc(O)cc1	-1.8	i	0.78	104	-6	8	113
O=C(O)CCCN1C(=O)/C(=C/c2ccc(-c3nc4ccccc4s3)o2)SC1=S	-3.6	.	.	97	1	0	107
COc1ccc(C(=O)N(CC2CCCO2)C(C(=O)NC2CCCC2)c2ccc(C)cc2)cc1OC (centres undefined)	-0.3	i	0.68	107	-10	-38	97
CC(=O)N(c1ccccc1)c1c(F)c(F)c(F)c(F)c1F	-3.0	i	0.99	100	-8	0	92
Cc1ccc(-c2csc(N(CCCN(C)C)C(=O)c3ccco3)n2)cc1	.	i	0.91	94	-6	-25	106
O=C(COC(=O)c1ccc(F)cc1)Nc1ccccc1N1CCOCC1	-1.3	i	0.96	106	12	-33	122
Cc1ccccc1C(=O)N1CCN(c2nc(N3CCOCC3)nc(N3CCOCC3)n2)CC1	1.5	i	0.97	66	-7	-41	51
NC(=O)[C@@H]1CCCN1Cc1nc(Cc2cccc(C(F)(F)F)c2)no1	.	i	1.2	103	3	.	.
O=C(Nc1nnc(-c2ccccc2)o1)Nc1ccc(F)cc1F	.	i	1.1	95	0	12	108
Cc1ccc2cc(CCNC(=O)c3ccco3)c(=O)[nH]c2c1C	-1.2	.	.	119	-1	-20	159
Cn1nc(-c2ccccc2)c(C(O)c2ccc(Cl)cc2)c1Cl (centres undefined)	-1.1	i	1	103	6	.	.
O=C(Cn1cc([N+](=O)[O-])cn1)Nc1nc2ccccc2s1	-3.1	i	0.93	101	-6	25	127
O=[N+]([O-])c1ccc(/C=C/C2=NN(c3ccccc3)C(c3ccco3)C2)o1 (centres undefined)	.	?	.	101	3	.	.
CCC(C)(C(=O)NC1CCCCC1)N(Cc1ccco1)C(=O)c1ccccn1 (centres undefined)	-1.0	i	0.94	91	4	25	71
c1cncc(-c2nc(NCc3ccco3)c3ccccc3n2)c1	-4.3	i	0.93	103	-11	6	92
N#Cc1nc(Cc2ccccc2)oc1N1CCN(c2cccc(Cl)c2)CC1	-1.1	i	0.79	110	-4	-29	135
CC(CCO)Nc1nc2c([nH]1)c(=O)n(C)c(=O)n2C (centres undefined)	-1.0	i	0.94	96	-11	69	109
O=C(Nc1nccs1)c1nc(-c2ccccc2)n(-c2ccccc2)n1	-1.6	i	0.95	94	-6	.	.
NCCCn1cnc2ccccc21	.	i	0.98	95	4	-110	88
O=c1oc2cc(O)c(Cl)cc2c2ccccc12	-0.2	i	0.9	98	-12	-153	164

Record cards (already shown). Values in the order: GALR2 agonist, HSV replic up, HSV replic up primary fold, RGS16-Gao, PKD1 inh, INS promoter inh, INS promoter inh cell count
CCC(C)(C(=O)NC1CCCCC1)N(Cc1ccco1)C(=O)c1ccccn1 (centres undefined) across the screens: -1.0, i, 0.94, 91, 4, 25, 71
CC(CCO)Nc1nc2c([nH]1)c(=O)n(C)c(=O)n2C (centres undefined) across the screens: -1.0, i, 0.94, 96, -11, 69, 109
O=C(Nc1nccs1)c1nc(-c2ccccc2)n(-c2ccccc2)n1 across the screens: -1.6, i, 0.95, 94, -6, ., .
O=[N+]([O-])c1ccc(/C=C/C2=NN(c3ccccc3)C(c3ccco3)C2)o1 (centres undefined) across the screens: ., ?, ., 101, 3, ., .
O=c1oc2cc(O)c(Cl)cc2c2ccccc12 across the screens: -0.2, i, 0.9, 98, -12, -153, 164

Following part.
SMILES	GALR2 agonist	HSV replic up	HSV replic up primary fold	RGS16-Gao	PKD1 inh	INS promoter inh	INS promoter inh cell count
COc1cc(C)c(CNc2ccc(OC)c(OC)c2)cc1C	0.3	i	0.76	105	5	-108	81
Cn1c(=O)c2c(SC3CCCC3)nc(CC(C)(C)C)nc2n(C)c1=O	-0.5	.	.	.	6	.	.
CCn1cc(C(=O)NCc2ccc3c(c2)OCO3)c2cc(OC)c(OC)cc2c1=O	-3.6	i	1	137	-9	.	.
N/C(=N\NC(=O)c1ccc(Cl)cc1)c1cnccn1	.	i	0.91	96	.	.	.
Cn1cc(S(=O)(=O)N2CCC(Cc3ccccc3)CC2)c(=O)n(C)c1=O	-2.3	i	1.1	100	-4	.	.
COC(=O)N/C(C)=C1/NC(=O)c2ccccc2C(c2ccccc2)N1 (centres undefined)	-2.2	i	0.95	105	18	-50	79
CCOCCCNC(=O)c1cn(C)c(=O)c2cc(OC)c(OC)cc12	-1.2	i	1	102	-4	.	.
CCNc1cccc2c1C(=O)N(C)C2=O	0.0	i	0.9	103	7	44	91
COc1ccc2c3c(c(=O)oc2c1OCC(N)=O)CCCC3	-0.3	i	0.75	100	4	36	144
COc1ccc(CCN=C(N)NS(=O)(=O)c2cccs2)cc1OC	.	i	1	94	0	.	.
CCn1cc(C(=O)NCc2ccco2)c(=O)c2cc(S(=O)(=O)N3CCCC3)ccc21	.	.	.	93	3	0	80
CC1(C)SC(=S)N(/N=C/c2ccc(O)cc2)C1N(O)C(=O)Nc1ccc([N+](=O)[O-])cc1 (centres undefined)	-0.1	i	0.76	101	6	2	112
Cc1cc(C)cc(NC(=O)COC(=O)c2cc(C)oc2C)c1	.	i	0.89	108	-12	-158	56
CCN(Cc1ccccc1)CC(O)COc1ccccc1 (centres undefined)	-0.7	i	1	102	2	-40	77
CC1=CC(=C(C#N)c2nc3ccccc3s2)C=C(C)N1c1ccc(F)cc1	1.6	i	1.3	97	-10	.	.
CCCc1[nH]n(-c2ccc([N+](=O)[O-])cc2)c(=O)c1C=NCCCn1ccnc1	.	i	1	107	3	-92	105
O=C(O)c1ccc(NC2=C(n3nnc4ccccc43)C(=O)c3ccccc3C2=O)cc1	.	i	1.1	100	.	.	.
Cc1no[n+]([O-])c1COc1ccc(/C=C2\NC(=S)NC2=O)cc1	0.4	i	0.88	89	6	9	123
CN(C)c1nc(SCCOC(=O)COc2ccc(Cl)cc2Cl)nc(N(C)C)n1	1.6	.	.	113	-1	3	95
O=C(COC(=O)/C=C/c1ccccc1)Nc1cc(C(F)(F)F)ccc1N1CCOCC1	-1.1	i	0.85	102	-3	.	.
Cc1ccc(-n2nc3c(c2NC(=O)c2ccc(Br)o2)CSC3)c(C)c1	-1.1	i	1	103	4	-36	157
COC(=O)CSc1nnc(-c2ccccn2)n1Cc1ccco1	-0.7	.	.	103	-7	-18	86
Cc1ccc(-n2cnnn2)c(S(=O)(=O)N2CCOCC2)c1	-1.4	i	0.94	96	-10	50	133
O=C(CN(c1ccc2c(c1)OCCO2)S(=O)(=O)c1ccccc1)NCc1ccco1	-0.8	i	1.1	100	-1	45	99
Cc1cc(NC(=O)C2CCC2)n(-c2ccccn2)n1	0.2	i	0.93	3.5*	-7	.	.
O=[N+]([O-])c1ccc(NCc2ccccn2)nc1	0.4	i	1.1	96	0	0	130
Cc1ccc(S(=O)(=O)Nc2cccc3c2CCCC3)cc1	0.3	i	1	94	9	-3	88
OCC1CCCN(c2nc(CN3CCCCC3)nc3scc(-c4ccccc4)c23)C1 (centres undefined)	1.9	i	0.95	97	3	.	.
COc1cccc(/C=C/C(=O)NCc2cn3cc(Cl)ccc3n2)c1OC	.	i	1.1	99	1	8	143
CCOC(=O)/C(=N/Nc1ccccc1)Sc1nnnn1-c1ccc(C)cc1	0.8	i	1.1	98	0	-65	93

Reprinted at random: three entries already listed.
SMILES	GALR2 agonist	HSV replic up	HSV replic up primary fold	RGS16-Gao	PKD1 inh	INS promoter inh	INS promoter inh cell count
COC(=O)N/C(C)=C1/NC(=O)c2ccccc2C(c2ccccc2)N1 (centres undefined)	-2.2	i	0.95	105	18	-50	79
COc1ccc(Cl)cc1-c1nc(SCC(=O)NCCN2C(=O)CSC2=O)n[nH]1	-1.8	i	1.1	106	-1	29	139
COc1cc(C)c(CNc2ccc(OC)c(OC)c2)cc1C	0.3	i	0.76	105	5	-108	81

(list continues)
SMILES	GALR2 agonist	HSV replic up	HSV replic up primary fold	RGS16-Gao	PKD1 inh	INS promoter inh	INS promoter inh cell count
CCOc1ccc(N(C(=O)c2cnsn2)C(C(=O)NC2CCCCC2)c2ccncc2)cc1 (centres undefined)	0.3	i	0.96	116	-1	-39	56
Cc1cc(-c2n[nH]c(=S)n2/N=C/c2cc([N+](=O)[O-])ccc2Cl)n[nH]1	0.1	i	1.1	-2.0*	-2	11	72
CCOC(=O)C(C)c1c(C)[nH]c(=S)[nH]c1=O (centres undefined)	-2.5	.	.	111	-7	0	137
O=C(O)c1ccccc1-c1ccccc1C(=O)NNc1ccccc1	-1.9	i	1	108	-1	21	39
O=C(COC(=O)[C@@H]1CC(O)CN1S(=O)(=O)c1ccccc1[N+](=O)[O-])c1ccccc1 (some centres undefined)	.	i	0.89	102	-1	.	.
CC1Cc2cc(/C(O)=C3\C(=O)C(=O)N(CCN4CCOCC4)C3c3ccccc3F)ccc2O1 (centres undefined)	-1.5	i	0.89	125	-10	.	.
Cc1cc(C)c2cc(CN(Cc3ccc4c(c3)OCO4)Cc3nnnn3Cc3ccco3)c(=O)[nH]c2c1	2.7	i	0.77	105	-4	26	73
[O-]/[N+](=C/c1ccc(F)cc1)c1ccc(Cl)cc1	-3.8	i	0.99	80	4	32	55
CC(C)(C)NC(=O)C(c1ccc(O)cc1)N(Cc1ccco1)C(=O)Cn1nnc(-c2cccs2)n1 (centres undefined)	-0.6	i	0.81	78	-3	19	101
COC(=O)c1c(C(=O)OC)n(CCCN)c2ccc(C)cc12	-0.6	i	0.84	100	5	-410	107
O=C(COc1ccc(Br)cc1)N1CCc2ccccc2C1	.	i	0.99	95	-4	.	.
CCCn1c2ccccc2c2nc3ccccc3nc21	-1.6	i	1	104	-3	67	163
CC(=O)CSc1nnc(Cc2ccc3c(c2)OCO3)o1	-2.2	i	0.9	112	3	59	87
N/C(=N\OC(=O)C(c1ccccc1)c1ccccc1)c1ccncc1	.	i	0.93	109	.	.	.
CCCCC(c1nnnn1CC1CCCO1)N1CCN(c2cccc(C)c2C)CC1 (centres undefined)	-0.3	i	0.89	98	3	55	143
COc1ccc(NC(=O)[C@H](CCS(C)(=O)=O)N2Cc3ccccc3C2=O)c(OC)c1	-2.0	i	0.81	100	-7	.	.
COC(=O)C1(C)Nc2ccccc2C(=O)N1c1ccccc1OC (centres undefined)	-1.4	.	.	98	-7	-17	120
O=C(Nc1ccc(-c2nc3ccccc3s2)cc1)C1=COCCO1	0.6	i	1.1	96	-8	-28	104
Cc1ccc2nsnc2c1S(=O)(=O)N1CCN(Cc2ccc3c(c2)OCO3)CC1	-0.8	i	1.1	99	-9	11	18
Cc1cccc(C)c1NC(=S)NN(Cc1ccccc1)c1ccccc1	1.9	i	0.94	108	3	.	.
CCN(C(=O)COc1cc(=O)n(CC)c2ccccc12)c1cc(Cl)ccc1OC	-1.8	i	1.1	104	-13	.	.
COc1ccc(COC(=O)c2nc3nc(C)cc(C)n3n2)cc1F	-1.6	i	1	97	-5	.	.
CCOC(=O)c1c(NC(=O)c2ccncc2)sc(C)c1C	.	i	0.94	95	2	.	.
O=C(c1ccccc1)N1CCN(c2ccc([N+](=O)[O-])c(NCC3CCCO3)c2)CC1 (centres undefined)	.	i	0.82	97	-2	.	.
CCN1CCN(c2nc3ccccc3n3cnnc23)CC1	.	i	0.83	101	.	.	.
COC(=O)c1ccc(COc2ccc(/C=N/Nc3cccc(C(=O)O)c3)cc2)cc1	.	i	1.3	99	.	.	.

Compounds were not picked by outcome (roughly 1.3% active in at least one column).
